Compound activity: PubChem BioAssay, National Center for Advancing Translational Sciences (NCATS)
CtBP-E1A inh = blocks the CtBP interaction with E1A | 340,000 tested, 0.49% active | AlphaScreen GST-E1A/His-CtBP binding, 1536-well; active compounds read low; control for the full effect not named in the record | activity change, % (concentration not given with the values) | AID 651724; in the data active means activity change below about -65%; inconclusive means about -30% to -65%; inactive means above about -30%; also: % is scaled to controls: 0 for no effect and ±100 for the full control effect
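Steps: dispense buffer (Tris pH 8.0, NaCl 300 mM, TCEP 1 mM, BSA, Tween 20); add 5X protein mix (GST-E1A, His-CtBP, 125 nM each); pin 23 nL compound; 2 h at 37 °C, dark; add 5X beads (50 ug/mL); 1 h; read.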
D2 PAM = human D2 receptor positive allosteric modulation; AID 624464; P14416; potentiation, % (test concentration not listed); DiscoveRx D2 beta-arrestin cells, luminescence, 90 min; 100% = 57 uM dopamine signal; 360,000 tested, 0.23% active; active = potentiation of 50% or more; inconclusive = 30% to 50%; inactive = 30% or less;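 also: compound concentration not given in the record; tested on top of an EC20 dose of dopamine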
Target sequence (P14416 whole entry, looked up): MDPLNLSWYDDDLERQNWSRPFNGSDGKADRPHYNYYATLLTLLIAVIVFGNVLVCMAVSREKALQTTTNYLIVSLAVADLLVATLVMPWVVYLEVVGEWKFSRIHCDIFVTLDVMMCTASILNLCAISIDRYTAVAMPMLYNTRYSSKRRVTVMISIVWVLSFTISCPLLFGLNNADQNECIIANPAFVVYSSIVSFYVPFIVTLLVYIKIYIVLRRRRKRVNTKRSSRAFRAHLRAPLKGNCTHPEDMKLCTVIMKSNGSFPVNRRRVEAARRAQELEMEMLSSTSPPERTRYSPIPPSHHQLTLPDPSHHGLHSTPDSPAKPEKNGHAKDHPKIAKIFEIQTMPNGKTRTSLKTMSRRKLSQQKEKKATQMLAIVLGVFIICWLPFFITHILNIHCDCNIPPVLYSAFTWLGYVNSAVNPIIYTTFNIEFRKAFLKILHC
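PathHunter beta-arrestin assay in DiscoveRx D2 cells. Compounds were added with an EC20 of dopamine (50 nM final) for 90 min at 37 deg C. Luminescence was read 1 h after detection reagent, with 57 uM dopamine as the EC100 control.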
TRPML1 ag = activates the human TRPML1 channel; Q9GZU1; TRPML1-expressing cells, Ca2+ dye fluorescence, FDSS; host cell line not named in the record; reference of the full effect not given here; activation, % (concentration not given with the values); 410,000 tested, 0.12% active; in the data active = activation above about 50%; inconclusive = about 30% to 50%; inactive = below about 30%; also: 0% is about no effect; the text of the record puts the active cut at 80%
Target sequence (Q9GZU1 whole entry, looked up): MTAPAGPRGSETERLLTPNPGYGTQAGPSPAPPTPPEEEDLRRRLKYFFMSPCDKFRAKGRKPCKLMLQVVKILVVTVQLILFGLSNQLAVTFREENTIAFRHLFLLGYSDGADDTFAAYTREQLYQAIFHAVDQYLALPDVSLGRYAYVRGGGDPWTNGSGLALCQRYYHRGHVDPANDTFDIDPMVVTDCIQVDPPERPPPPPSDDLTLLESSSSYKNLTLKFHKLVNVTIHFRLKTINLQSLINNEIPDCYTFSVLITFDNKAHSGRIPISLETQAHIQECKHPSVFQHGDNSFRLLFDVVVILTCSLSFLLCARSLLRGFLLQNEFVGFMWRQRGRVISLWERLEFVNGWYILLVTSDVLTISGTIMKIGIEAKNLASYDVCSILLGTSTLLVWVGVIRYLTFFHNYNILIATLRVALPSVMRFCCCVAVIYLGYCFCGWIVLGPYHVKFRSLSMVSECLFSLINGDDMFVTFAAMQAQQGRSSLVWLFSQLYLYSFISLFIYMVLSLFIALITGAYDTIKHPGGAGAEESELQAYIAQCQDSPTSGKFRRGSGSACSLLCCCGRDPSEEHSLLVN
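Cells: TRPML1-DL, 1X Tet inducer, ~16 h at 37 degrees C/5% CO2. Dye: ABD Ca8 no-wash + quencher, 45-90 min RT. Read: 10 s baseline, compound add, 110 s agonist phase; 54-4 EC80 (4uM final), 110 s antagonist phase.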
PINK1 expr mod = changes PINK1 expression. PINK1 immunofluorescence, high-content cytometry, 24 h. Potency, µM (series often up to 76.6 µM), inactives show at the highest dose activation (PINK1 increase), usual class: activators. 410,000 tested, 0.2% active. AID 624263; active = well fitted activation curve with a large enough effect; inconclusive = small, poorly fitted or top-dose-only effect; inactive = flat fitted curve, though single readings scatter; cell line not stated here;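 also: potency is read from the fitted curve at half-maximal effect; % of control where 0% means no effect; nearly all actives have a fitted effect of over 65% in size; a mitochondrial uncoupler was the plate control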
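Stable cell line treated 24 h with compounds at 5 concentrations (CCCP controls), then fixed and immunostained for PINK1 plus nuclear and cell stains; PINK1 immunofluorescence quantified by laser-scanning microplate cytometry.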
D2 ag = human D2 receptor agonism in beta-arrestin assay; activation, % (no concentration beside the values); DiscoveRx PathHunter D2 beta-arrestin, luminescence, 90 min; 100% = 57 uM dopamine signal; 360,000 tested, 0.084% active; AID 624465; in the data active = activation above about 40%; inconclusive = about 15% to 40%; inactive = below about 15%; also: compound concentration not given in the record; the text of the record calls up to 30% inactive
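DiscoveRx PathHunter D2 beta-arrestin cells (2,100/well) attached overnight, then compound-stimulated 90 min at 37 C in HBSS/10 mM HEPES/0.1% Tween-20 buffer; beta-galactosidase complementation read by luminescence after 1 h at ambient temperature. Dopamine 57 uM final (EC100) as control.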
Six1-Eya2 inh = blocks human Six1 binding to Eya2 | activity change, % (concentration not given with the values) | 360,000 tested, 0.56% active | AlphaScreen GST-Six1/His-Eya2 binding, biochemical; active compounds read low; control for the full effect not named in the record | Q15475+O00167; in the data active = activity change below about -65%; inconclusive = about -30% to -65%; inactive = above about -30%; also: % is scaled to controls: 0 for no effect and ±100 for the full control effect
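AlphaScreen with GST-Six1 and His-Eya2 (5X mix: 250 nM and 500 nM), glutathione donor and nickel acceptor beads; buffer 50 mM Tris pH 8.0, 300 mM NaCl, 1 mM TCEP; 1 h at 37 C in the dark.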
* = called active by the depositor; & = joins results of further samples; [ ] = remark or other dose.

CC1=CC(C)(C)N(C(=O)CN2C(=O)c3ccccc3C2=O)c2ccccc21 was read as CtBP-E1A inh 19.9, D2 PAM -18.0, TRPML1 ag 95.7*, PINK1 expr mod 0.8%[38.3 µM], D2 ag -1.9 and Six1-Eya2 inh 1.4.
`S=C(c1ccccc1)N1CCN(c2ccccc2)CC1` gave CtBP-E1A inh -4.2, D2 PAM -8.7, TRPML1 ag 0.4, PINK1 expr mod 0.3%, D2 ag -1.0 and Six1-Eya2 inh -6.0.
Screening Cc1ccc(C)c2[nH]c(=O)c(CCNC(=O)c3ccc(Br)o3)cc12 returned CtBP-E1A inh -0.4, D2 PAM 0.2, TRPML1 ag 1.0, PINK1 expr mod 9.2%[38.3 µM], D2 ag -2.7 and Six1-Eya2 inh -1.5.
For O=C(O)CNC(=S)N(Cc1ccccc1Cl)C1CCCCC1 the results were CtBP-E1A inh 10.0, D2 PAM 2.8, TRPML1 ag 0.0, PINK1 expr mod 1.5%, D2 ag 7.8 and Six1-Eya2 inh 10.1.
For CC(Sc1nncn1C)C(=O)NCc1ccc2c(c1)OCO2 (stereo unspecified) the results were CtBP-E1A inh 1.4, D2 PAM 4.0, TRPML1 ag 0.0, PINK1 expr mod 2.8%, D2 ag -0.9 and Six1-Eya2 inh -1.6.
Screening O=C(Cc1ccccc1)Nc1cccc(S(=O)(=O)N2CCCCCC2)c1 returned CtBP-E1A inh 0.5, D2 PAM 0.3, TRPML1 ag 1.8, PINK1 expr mod 1.2%, D2 ag 5.0 and Six1-Eya2 inh -1.1.
`CN1CC=C2C(C#N)=C(N)C(C#N)(C#N)[C@H](c3cccs3)[C@H]2C1` gave CtBP-E1A inh -18.9, D2 PAM -13.2, TRPML1 ag 0.4, PINK1 expr mod inconclusive, D2 ag 8.6 and Six1-Eya2 inh -16.3.
For O=C1CC(c2ccc(F)cc2)CC2=C1C(c1ccc([N+](=O)[O-])o1)Nc1ccccc1N2 (stereo unspecified) the results were CtBP-E1A inh -2.8, D2 PAM -13.9, TRPML1 ag -0.9, PINK1 expr mod 1.3%, D2 ag -6.0 and Six1-Eya2 inh 7.8.
CCN(CC)CCC(=O)Nc1ccc2c(c1)N(C(=O)CN(CC)CC)c1ccccc1CC2 was read as CtBP-E1A inh -5.5, D2 PAM -28.0, TRPML1 ag -0.6, PINK1 expr mod 2.1%, D2 ag -3.1 and Six1-Eya2 inh -0.4.
Screening C=CCN=C1S/C(=C/c2ccc([N+](=O)[O-])cc2)C(=O)N1CC=C returned CtBP-E1A inh -10.6, D2 PAM -4.8, TRPML1 ag 1.1, PINK1 expr mod 2.2%, D2 ag 0.7 and Six1-Eya2 inh -20.9.
`CCC(=O)N(C)CCc1cc2c(c(OC)c1/C=N/Nc1ccc(C(=O)O)cc1)OCO2` gave CtBP-E1A inh 0.1, D2 PAM 4.9, TRPML1 ag 0.7, PINK1 expr mod 0.2%, D2 ag 10.1 and Six1-Eya2 inh -1.3.
For Cc1noc(C)c1C(=O)OCC(=O)C12CC3CC(CC(C3)C1)C2 the results were CtBP-E1A inh 7.1, D2 PAM -2.4, TRPML1 ag 0.7, PINK1 expr mod 0.3%, D2 ag 1.8 and Six1-Eya2 inh -2.5.
`c1ccc(-c2sc3ccccc3c2-c2ccc(OCCN3CCCC3)cc2)cc1` gave CtBP-E1A inh -4.2, D2 PAM -53.8, TRPML1 ag -0.6, PINK1 expr mod -1.3%, D2 ag 10.0 and Six1-Eya2 inh -20.1.
Cc1ccc2c(c1)-c1cc(C)nn1C(c1ccc3c(c1)OCO3)N2 (stereo unspecified) was read as CtBP-E1A inh -2.9, D2 PAM 12.5, TRPML1 ag 0.7, PINK1 expr mod 2.2%, D2 ag 0.2 and Six1-Eya2 inh 7.8.
O=C(NNc1cc(Cl)ccc1Cl)c1c(F)cccc1Cl was read as CtBP-E1A inh 1.1, D2 PAM -3.4, TRPML1 ag 1.5, PINK1 expr mod 2.8%, D2 ag -5.1 and Six1-Eya2 inh 4.7.

Overlap with the part before: 2 compounds; new compounds follow.
Cc1ccc2c(c1)-c1cc(C)nn1C(c1ccc3c(c1)OCO3)N2 (stereo unspecified) was read as CtBP-E1A inh -2.9, D2 PAM 12.5, TRPML1 ag 0.7, PINK1 expr mod 2.2%, D2 ag 0.2 and Six1-Eya2 inh 7.8.
O=C(NNc1cc(Cl)ccc1Cl)c1c(F)cccc1Cl was read as CtBP-E1A inh 1.1, D2 PAM -3.4, TRPML1 ag 1.5, PINK1 expr mod 2.8%, D2 ag -5.1 and Six1-Eya2 inh 4.7.
Cc1nn(C2CCS(=O)(=O)C2)c(Cl)c1/C=C/C(=O)OCC(=O)Nc1ccccc1OC(F)F (stereo unspecified) was read as CtBP-E1A inh 12.6, D2 PAM 4.1, TRPML1 ag -0.5, PINK1 expr mod 0.7%, D2 ag -1.1 and Six1-Eya2 inh 6.5.
For COCc1cc(C)nc(OCC(=O)N/N=C/c2cccc(OC)c2)c1C#N the results were CtBP-E1A inh 5.9, D2 PAM 5.7, TRPML1 ag -0.4, PINK1 expr mod 0.0%, D2 ag -2.8 and Six1-Eya2 inh -2.0.
Cc1ccc(NC(=O)CSc2nc(C)c(Cc3ccccc3)c(=O)[nH]2)cc1 was read as CtBP-E1A inh 14.5, D2 PAM -6.4, TRPML1 ag 1.0&0.9, PINK1 expr mod 10.9%&6.7%, D2 ag -1.7 and Six1-Eya2 inh 7.0.
Screening CCOC(=O)C1CCN(C(=O)Cn2c(=O)oc3cc(S(=O)(=O)N4CCCC4)ccc32)CC1 returned CtBP-E1A inh 2.2, D2 PAM 1.1, TRPML1 ag -0.9, PINK1 expr mod -0.5%, D2 ag -1.2 and Six1-Eya2 inh -4.1.
`O=C(NCc1ccccc1Cl)C1CCN(C(=O)c2sccc2-n2cccc2)CC1` gave CtBP-E1A inh -0.8, D2 PAM -1.1, TRPML1 ag -0.3, PINK1 expr mod -1.3%, D2 ag 5.3 and Six1-Eya2 inh -10.9.
Screening CC1CN(C(=S)Nc2ccc(SC(F)F)cc2)CC(C)O1 (stereo unspecified) returned CtBP-E1A inh -1.1, D2 PAM -7.2, TRPML1 ag -0.5, PINK1 expr mod -1.3%, D2 ag 1.5 and Six1-Eya2 inh -7.4.
Screening CC1CCCCN1C(=O)COc1ccc(F)cc1 (stereo unspecified) returned CtBP-E1A inh 1.2, D2 PAM 2.1, TRPML1 ag 4.3, PINK1 expr mod 0.8%, D2 ag 2.3 and Six1-Eya2 inh 4.5.
For Cc1ccc(C(=O)O/N=C2/CC3CCC2(C)[C@@]3(C)CBr)cc1 (stereo partly specified) the results were CtBP-E1A inh -5.3, D2 PAM -8.0, TRPML1 ag 3.1, PINK1 expr mod 23.1%, D2 ag -4.4 and Six1-Eya2 inh -4.6.
`COc1ccccc1NC(=O)NC1CCCc2ccccc21` (stereo unspecified) gave CtBP-E1A inh 1.7, D2 PAM -9.2, TRPML1 ag -0.3, PINK1 expr mod 1.0%, D2 ag 3.6 and Six1-Eya2 inh 2.9.
`CC[n+]1c(/C=C2\C=C(C)CC(C)C2)sc2ccccc21` (stereo unspecified) gave CtBP-E1A inh -4.8, D2 PAM -32.3, TRPML1 ag -0.1, PINK1 expr mod inconclusive, D2 ag -1.5 and Six1-Eya2 inh -12.3.
COc1cc(C2Nc3ccccc3C(=O)N2NS(C)(=O)=O)ccc1O (stereo unspecified) was read as CtBP-E1A inh 12.1, D2 PAM -6.1, PINK1 expr mod -0.4%, D2 ag 2.6 and Six1-Eya2 inh 1.2.
Screening Cc1ccccc1NC(=O)C1CC(=O)N(c2ccc3c4c(cccc24)CC3)C1 (stereo unspecified) returned CtBP-E1A inh -4.6, D2 PAM -6.2, TRPML1 ag -0.3, D2 ag -0.1 and Six1-Eya2 inh -1.1.
Cc1ccc(C(=O)c2c(NC(=O)c3ccccc3C)sc(C)c2C)cc1 was read as CtBP-E1A inh inconclusive, D2 PAM -12.8, TRPML1 ag 2.1, PINK1 expr mod 3.0%, D2 ag -3.6 and Six1-Eya2 inh -23.4.
Screening CC(=O)OC[C@H]1O[C@@H](Oc2cc(O)cc3oc(-c4ccc(O)cc4)cc(=O)c23)[C@H](O[C@@H]2O[C@@H](C)[C@H](O)[C@@H](O)[C@H]2O)[C@@H](O)[C@@H]1O returned CtBP-E1A inh 3.4, D2 PAM inconclusive, TRPML1 ag -0.7, PINK1 expr mod 3.7%, D2 ag 0.9 and Six1-Eya2 inh 4.7.
For O=C(NN=Cc1ccccc1O)NN=Cc1ccccc1O the results were CtBP-E1A inh -1.7, D2 PAM -4.2, TRPML1 ag -1.1, PINK1 expr mod 0.891µM*, D2 ag 0.4 and Six1-Eya2 inh 0.1.
Screening Cc1cccc(N2C(S)=C(C#N)C(=O)NC23CCCCC3)c1 returned CtBP-E1A inh 10.9, D2 PAM -7.7, TRPML1 ag -0.4, PINK1 expr mod 1.6%, D2 ag -7.6 and Six1-Eya2 inh -1.4.
For Nc1nc(=S)c2ncn(C3CCCC3)c2[nH]1 the results were CtBP-E1A inh -10.2, D2 PAM -3.7, TRPML1 ag 0.5, PINK1 expr mod 2.1%, D2 ag -0.9 and Six1-Eya2 inh -17.3.
Screening CC(=O)Nc1ccc(S(=O)(=O)N2CCN(CCC#N)CC2)cc1 returned CtBP-E1A inh 6.3, D2 PAM -0.4, TRPML1 ag 0.4, PINK1 expr mod 1.4%, D2 ag -1.2 and Six1-Eya2 inh 0.0.
Screening CCN(CC)C(=O)C1=C(C)N(Cc2ccc(OC)cc2)C(=O)C(CC(=O)NCCCN(C)C)C1 (stereo unspecified) returned CtBP-E1A inh 4.2, PINK1 expr mod 0.9%, D2 ag 2.7 and Six1-Eya2 inh 3.4.
CCCC[C@@H]1CNC(=S)N1CCCC was read as CtBP-E1A inh 5.4, D2 PAM -4.8, TRPML1 ag -0.1, PINK1 expr mod -0.7%, D2 ag -0.3 and Six1-Eya2 inh 1.1.
CCOC(=O)C1CCCN(C/C(O)=C(\C#N)c2nc(-c3ccccc3)cs2)C1 (stereo unspecified) was read as CtBP-E1A inh -0.2, D2 PAM 4.3, TRPML1 ag 0.6, D2 ag -0.9 and Six1-Eya2 inh -1.5.
`O=C(COC(=O)c1ccccc1[N+](=O)[O-])c1ccc(C2CCCCC2)cc1` gave CtBP-E1A inh -22.7, D2 PAM 22.6, TRPML1 ag -0.6, PINK1 expr mod -0.9%, D2 ag 0.0 and Six1-Eya2 inh -19.5.
`CCn1c(=O)n(CC)c2cc(N3CCCC3)c(NC(=O)c3ccccc3OC)cc21` gave CtBP-E1A inh -25.4, D2 PAM 7.9, TRPML1 ag 1.9, PINK1 expr mod -1.3%, D2 ag 0.3 and Six1-Eya2 inh -20.3.
`CCOC(=O)[C@@H]1[C@H]2COc3ccc(Br)cc3[C@@H]2N2C(=O)N(c3cccc(Cl)c3)C(=O)[C@]12C` gave CtBP-E1A inh -3.1, D2 PAM -38.1, TRPML1 ag 1.3, PINK1 expr mod 1.9%, D2 ag 0.6 and Six1-Eya2 inh 3.2.
`O=C(NCC(c1ccco1)N1CCc2ccccc21)c1cccc([N+](=O)[O-])c1` (stereo unspecified) gave CtBP-E1A inh -20.2, D2 PAM 5.0, TRPML1 ag 1.3, PINK1 expr mod 2.5%, D2 ag 7.0 and Six1-Eya2 inh -24.1.
